Sfp inh – qHTS Assay for Inhibitors of Bacillus subtilis Sfp phosphopantetheinyl transferase (PPTase) | 4'-phosphopantetheinyl transferase ffp (Bacillus subtilis), Q9F4F7 | Biochemical Sfp PPTase activity, qHTS | Potency, µM, for inactives: max response, negative = inhibition, most hits filed as inhibitors | 3.5% of 310,000 active; active = well fitted inhibition curve with a large enough effect; inconclusive = small, poorly fitted or top-dose-only effect, or another doubt; inactive = no such curve, though single readings can be large or run the other way;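 note: the enzyme is Sfp with the accession as filed and its product quenches rhodamine fluorescence; potency is the fitted concentration of half-maximal effect; 0% = enzyme reaction without inhibitor and -100% = no enzyme wells; top concentration of the series not given in the record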
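After 15 min at room temperature with compound, 15 nM Sfp received 5 uM rhodamine-CoA plus 12.5 uM BHQ-2-ybbR (50 mM Hepes pH 7.6, 10 mM MgCl2). Rate came from the fluorescence difference over 30 min, ex 525/em 598 nm.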
TRPV1 PAM – HTS Assay for Compounds that Act as Potentiators of the Vanilloid Receptor 1 | TRPV1-expressing cells, Fluo-8 calcium influx, capsaicin EC20 potentiation; host cell line not named in the record; control for the full effect not named in the record | Transient receptor potential cation channel subfamily V member 1 (Homo sapiens), Q8NER1 | potentiation, % at 8.33 µM | 0.02% of 320,000 active | AID 540277, 2011; active means potentiation above 80%; inconclusive means 30% to 80%; inactive means below 30%; note: 0% is about no effect
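TRPV1-expressing cells were cultured overnight at 35.5C and loaded with Fluo-8 calcium dye for 40 to 90 min at room temperature. After a 10 s baseline, compound was added and calcium influx was read kinetically for 3 min (ex 480/em 520 nm).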
PINK1 expr mod – A Quantitative High throughput Screen to Identify Chemical Modulators of PINK1 Expression; AID 624263, 2012; Potency, µM (titrated, usually from 76.6 µM), inactives show at the highest dose activation (PINK1 increase), usual class: activators; PINK1 immunofluorescence, high-content cytometry, 24 h; 0.2% of 410,000 active; active = well fitted activation curve with a large enough effect; inconclusive = small, poorly fitted or top-dose-only effect; inactive = flat fitted curve, though single readings scatter; cell line not stated here;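 note: potency is the fitted concentration of half-maximal effect; % of control where 0% means no effect; nearly all actives have a fitted effect of over 65% in size; a mitochondrial uncoupler was the plate control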
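Decision-based qHTS: stable cells, 24 h exposure to five compound concentrations, CCCP as control. Fixed cells stained for PINK1 plus nuclear, mitochondrial and cell markers, cytometer read.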
CtBP-E1A inh – qHTS Assay for Inhibitors of the CtBP/E1A Interaction; CtBP / adenovirus E1A interaction (AlphaScreen); AlphaScreen GST-E1A/His-CtBP binding, 1536-well; stronger effect = lower value; control for the full effect not named in the record; activity change, % (no concentration beside the values); 0.49% of 340,000 active; AID 651724, 2012; in the data active means activity change below about -65%; inconclusive means about -30% to -65%; inactive means above about -30%; note: % is set by controls: 0 for no effect and ±100 for the full control effect; compound concentration not given in the record
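Steps: dispense buffer (Tris pH 8.0, NaCl 300 mM, TCEP 1 mM, BSA, Tween 20); add 5X protein mix (GST-E1A, His-CtBP, 125 nM each); pin 23 nL compound; 2 h at 37 °C, dark; add 5X beads (50 ug/mL); 1 h; read.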
Six1-Eya2 inh – qHTS Assay for Inhibitors of the Six1/Eya2 Interaction; AlphaScreen GST-Six1/His-Eya2 binding, biochemical; stronger effect = lower value; control for the full effect not named in the record; activity change, % (concentration not given with the values); 0.56% of 360,000 active; AID 651725, 2012; in the data active = activity change below about -65%; inconclusive = about -30% to -65%; inactive = above about -30%; note: % is set by controls: 0 for no effect and ±100 for the full control effect
Target sequence (O00167 whole entry, looked up): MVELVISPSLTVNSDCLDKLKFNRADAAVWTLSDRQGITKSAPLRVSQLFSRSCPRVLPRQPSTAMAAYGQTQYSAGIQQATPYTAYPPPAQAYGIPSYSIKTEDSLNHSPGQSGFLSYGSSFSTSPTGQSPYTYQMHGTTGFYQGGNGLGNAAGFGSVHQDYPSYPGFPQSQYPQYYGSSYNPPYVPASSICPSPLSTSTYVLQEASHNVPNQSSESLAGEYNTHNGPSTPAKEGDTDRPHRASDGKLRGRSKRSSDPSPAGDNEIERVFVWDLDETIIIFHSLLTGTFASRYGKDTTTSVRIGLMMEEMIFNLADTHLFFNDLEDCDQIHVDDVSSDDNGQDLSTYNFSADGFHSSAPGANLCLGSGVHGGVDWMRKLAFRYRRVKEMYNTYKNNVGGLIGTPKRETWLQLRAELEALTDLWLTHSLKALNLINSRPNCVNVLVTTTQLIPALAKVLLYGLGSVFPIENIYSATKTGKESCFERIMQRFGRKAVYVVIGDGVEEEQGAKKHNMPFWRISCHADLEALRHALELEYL
Target sequence (Q15475 whole entry, looked up): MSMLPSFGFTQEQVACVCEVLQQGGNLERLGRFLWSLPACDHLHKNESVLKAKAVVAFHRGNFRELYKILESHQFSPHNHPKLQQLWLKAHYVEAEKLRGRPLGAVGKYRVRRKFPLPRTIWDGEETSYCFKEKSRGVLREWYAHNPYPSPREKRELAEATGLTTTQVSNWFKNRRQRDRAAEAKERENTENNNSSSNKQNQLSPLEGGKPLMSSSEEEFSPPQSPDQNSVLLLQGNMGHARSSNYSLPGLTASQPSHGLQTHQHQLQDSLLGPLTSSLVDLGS
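Six1/Eya2 binding was read as AlphaScreen signal after compounds were pinned into GST-Six1 plus His-tagged Eya2 (5X stock 250/500 nM) in pH 8.0 Tris/NaCl/TCEP buffer, beads added, then incubated 1 h, 37 C, dark.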
D2 PAM – Beta-Arrestin HTS for Positive Allosteric Modulators of the Human D2 Dopamine Receptor: Potentiators. D(2) dopamine receptor (Homo sapiens), P14416. DiscoveRx D2 beta-arrestin cells, luminescence, 90 min; 100% = 57 uM dopamine signal. potentiation, % (test concentration not listed). 0.23% of 360,000 active. AID 624464, 2012; active = potentiation of 50% or more; inconclusive = 30% to 50%; inactive = 30% or less;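 note: compound concentration not given in the record; tested on top of an EC20 dose of dopamine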
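PathHunter D2 cells, attached overnight at 37 deg C, received compound in DMSO plus dopamine at EC20 (50 nM final) for 90 min at 37 deg C. Beta-arrestin recruitment was read as luminescence after 1 h with detection reagent at ambient temperature.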
D2 agonist – Beta-Arrestin HTS for Positive Allosteric Modulators of the Human D2 Dopamine Receptor: Agonists. D(2) dopamine receptor (Homo sapiens), P14416. DiscoveRx PathHunter D2 beta-arrestin, luminescence, 90 min; 100% = 57 uM dopamine signal. activation, % (concentration not given with the values). 0.084% of 360,000 active. AID 624465, 2012; in the data active = activation above about 40%; inconclusive = about 15% to 40%; inactive = below about 15%; note: compound concentration not given in the record; the text of the record calls up to 30% inactive
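DiscoveRx PathHunter D2 beta-arrestin cells (2,100/well) attached overnight, then compound-stimulated 90 min at 37 C in HBSS/10 mM HEPES/0.1% Tween-20 buffer; beta-galactosidase complementation read by luminescence after 1 h at ambient temperature. Dopamine 57 uM final (EC100) as control.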
An asterisk follows results filed as active; ? = inconclusive; nt = no result given; & = joins results of further samples; [ ] = dose if it differs, or a comment.

Molecule	TRPV1 PAM	Sfp inh	CtBP-E1A inh	D2 PAM	Six1-Eya2 inh	PINK1 expr mod	D2 agonist
Cc1ccc(S(=O)(=O)CC(=O)Nc2sc(C)c(C)c2C(N)=O)cc1	1.2	nt	-1.4	-20.1	20.7	-2.7%	2.4
O=S(=O)(Nc1ccc2c(c1)OCO2)c1cccc(Br)c1	-3.7	nt	0.9	-5.3	-1.4	7.3%	-2.3
O=C(O)/C=C/c1nc(-c2ccccc2)n2ccccc12	11.7	10.6%	-1.2	-8.5	-8.6	-1.1%	-2.0
O=S(=O)(c1ccc2nc(N3CCN(c4ccccc4F)CC3)ccc2c1)N1CCCCC1	-2.7	-5.0%	nt	-8.2	8.8	6.8%&3.6%	-2.3
CCO[C@@H]1OC(C(=O)O)=C[C@H](C)[C@H]1CCCO	14.4	5.9%	5.9	-9.2	1.9	-2.0%	-0.9
CCCCN(C)Cc1c(C)[nH]c2c(ccc3ccccc32)c1=O	6.0	3.6%	-9.4	-29.1	-0.3	1.5%	-0.6
O=c1ccc(NS(=O)(=O)c2ccccc2Cl)cn1Cc1ccc(Cl)c(Cl)c1	7.7	14.8%	nt	1.0	-2.1	1.6%	-8.0
CCOC(=O)C1(C)CCN1C(=O)c1cc(C)oc1C (stereo not given)	nt	nt	-0.4	-1.9	0.8	-0.2%	-5.9
CCOC(=O)C1CCN(C(=O)COC(=O)COc2ccc(Cl)cc2)CC1	-2.3	19.1%	5.7	-2.7	1.7	0.0%	?
CN=C1S/C(=C\c2cn(CC(=O)OC)c3ccccc23)C(=O)N1C	2.0	-24.5%	5.4	-9.7	-9.0	5.3%	-1.8
CC(C)c1ccc(NC2CCCN(C(=O)CCCn3cncn3)C2)cc1 (stereo not given)	-11.7	9.2%	-0.9	-6.2	-2.3	0.3%	-2.4
CC(C)Cn1nc(C(=O)OCC(=O)NCC(F)(F)F)c2ccccc2c1=O	-14.4	-0.6%	nt	0.3	5.5	0.9%	-1.0

(next part)
Molecule	TRPV1 PAM	Sfp inh	CtBP-E1A inh	D2 PAM	Six1-Eya2 inh	PINK1 expr mod	D2 agonist
Cn1c(N)c(C(=O)CSc2nnc(C3CC3)n2Cc2ccccc2)c(=O)[nH]c1=O	-30.4	nt	-6.0	-1.3	-1.6	-0.6%	0.9
Cc1ccc(NC(=O)CSc2nccn2Cc2ccco2)cc1	-16.8	6.6%	-5.5	-25.3	-6.6	1.8%	-3.4
CCC(C)Sc1ccc(-c2nc3ccc(C)cn3c2NCc2ccccc2)cc1 (stereo not given)	nt	nt	-10.1&-10.7	-20.8	?	5.4%&8.4%	1.0
CCOc1c(Br)cc(/C=C2\C(=O)N(CCC#N)N=C2C)cc1OC	?	-12.7%	4.7	-3.8	-1.2	5.0%	-3.1
O=C(Cc1c(F)cccc1Cl)N/N=C/c1cccnc1	-3.5	23.3%	-13.8	-13.6	-1.3	-1.1%	-2.3
NC(c1csc(Nc2ncccn2)n1)c1ccccc1Cl (stereo not given)	nt	nt	-66.1*	-2.3	-67.9*	-0.7%	-4.8
O=C(CSc1nc2ccccc2n1CC(=O)N1CCCC1)N1CCN(C(=O)c2ccco2)CC1	3.5	10.0%	43.4	-11.0	13.2	nt	-3.0
Cc1ccc(S(=O)(=O)C(C#N)c2nc3ccccc3nc2OC(C)C)cc1 (stereo not given)	-11.2	-2.5%	-1.6	-2.4	-0.6	2.7%[38.3 µM]	2.2
CC[C@@]1(C(=O)OC)N[C@H](CN(C)C(=O)C2CCCCC2)[C@@H]2C(=O)N(Cc3ccccc3)C(=O)[C@@H]21	nt	nt	-18.8	-2.5	1.6	-0.3%	0.4
O=C(COC(=O)c1cncc(Br)c1)NCCC1=CCCCC1	-10.2	-12.6%	-1.3	-12.4	6.9	0.2%	-1.5
Cc1ccc2c(c1)c1c(n2C)C(C(N)=O)CCC1 (stereo not given)	7.4	-5.1%	-0.7	-7.0	-6.9	11.8%[38.3 µM]	-1.5
O=c1[nH]c2ccc(S(=O)(=O)NCCO)cc2[nH]1	-5.8	-6.8%	nt	-5.5	4.1	0.1%	2.4

The closing 6 entries of the section above open the next one.
Molecule	TRPV1 PAM	Sfp inh	CtBP-E1A inh	D2 PAM	Six1-Eya2 inh	PINK1 expr mod	D2 agonist
O=C(CSc1nc2ccccc2n1CC(=O)N1CCCC1)N1CCN(C(=O)c2ccco2)CC1	3.5	10.0%	43.4	-11.0	13.2	nt	-3.0
Cc1ccc(S(=O)(=O)C(C#N)c2nc3ccccc3nc2OC(C)C)cc1 (stereo not given)	-11.2	-2.5%	-1.6	-2.4	-0.6	2.7%[38.3 µM]	2.2
CC[C@@]1(C(=O)OC)N[C@H](CN(C)C(=O)C2CCCCC2)[C@@H]2C(=O)N(Cc3ccccc3)C(=O)[C@@H]21	nt	nt	-18.8	-2.5	1.6	-0.3%	0.4
O=C(COC(=O)c1cncc(Br)c1)NCCC1=CCCCC1	-10.2	-12.6%	-1.3	-12.4	6.9	0.2%	-1.5
Cc1ccc2c(c1)c1c(n2C)C(C(N)=O)CCC1 (stereo not given)	7.4	-5.1%	-0.7	-7.0	-6.9	11.8%[38.3 µM]	-1.5
O=c1[nH]c2ccc(S(=O)(=O)NCCO)cc2[nH]1	-5.8	-6.8%	nt	-5.5	4.1	0.1%	2.4
O=C1CCCCC1c1cccc2ccccc12 (stereo not given)	-11.7	11.3%	-6.4	-3.4	-11.0	-0.1%	-3.6
CCOCCn1c(N2CCCC2)nc2c1c(=O)n(C)c(=O)n2C	20.6	37.4%[activator]	3.6	-0.1	5.5	-0.4%	2.0
O=C1C(CCc2ccccc2)ON=C(c2cnccn2)N1Cc1ccc(F)cc1 (stereo not given)	nt	nt	10.2	-3.1	13.4	0.6%	-4.0
Cc1cc(C)c(C#N)c(SCc2ccccc2)n1	-3.5	?	64.9	-12.2	70.2	1.1%	-2.7
Cc1ccnc(NC(=O)Nc2ccc3c(c2)N(C)C(=O)CS3)c1	-19.0	-8.3%	2.8	-1.4	-4.0	?	2.2
CCc1nnc(NC(=O)C2(C)COC(c3ccc(OC)cc3)OC2)s1 (stereo not given)	8.2	8.7%	12.0	-4.5	-4.1	2.2%	-4.8
CC(OC(=O)CCN=C1NS(=O)(=O)c2ccccc21)C(=O)NC1CCCCC1C (stereo not given)	-6.9	nt	9.3	12.4	0.8	-2.1%	-4.4
CC(C)C(=O)OC/C(O)=C(\C#N)c1nc2ccccc2[nH]1	4.1	12.2%	-4.2	0.5	-9.3	-0.7%	4.7
Cc1cccc(-n2cc(-c3ccccc3)c3c(NN4CCOCC4)ncnc32)c1	-7.6	0.0%	-3.6	-7.5	-0.2	5.3%	-4.2
O=C1CN(C(=O)c2cc(Br)c(Br)s2)c2ccccc2N1	8.0	10.2%	-2.6	-0.8	-5.6	3.2%	1.2
CC(C)CCNC(=O)Cc1ccc(Nc2nc(=S)[nH]c3ccccc23)cc1	15.4	27.7%	19.4	-35.0	-85.8*	3.1%	-5.6
CC(=O)N1CCCN(Cc2cn(-c3ccc(C)cc3)nc2-c2ccc(F)cc2)CC1	-8.0	-1.2%	-23.7	-2.8	-2.5	-0.8%	1.6

New compounds follow
Molecule	TRPV1 PAM	Sfp inh	CtBP-E1A inh	D2 PAM	Six1-Eya2 inh	PINK1 expr mod	D2 agonist
COc1ccccc1NC(=O)CCC(=O)OC(C)C(=O)c1ccccc1 (stereo not given)	-3.2	-4.8%	1.8	-6.5	0.2	0.0%	-3.7
COc1cc(NC(=O)c2cccc3c2C(=O)N(C2CCCCC2)C3)cc(OC)c1OC	-5.2	-28.8%	?	10.7	-14.7	0.0%&-0.4%	4.8
COCCCn1c(C(=O)Nc2ccc3c(c2)OCO3)cc2c(=O)n3cccc(C)c3nc21	nt	nt	0.2	-17.7	7.8	0.2%	-1.7
COc1ccc(N(CC(=O)NCCSc2ccccc2)S(=O)(=O)c2ccccc2)cc1	3.5	-1.6%	-0.8	-8.8	-0.3	-0.3%	-14.0
CCCC(C)NC(C)C(=O)NC1CCCC1 (stereo not given)	-1.3	7.3%	8.5	-2.2	-0.5	-0.3%	-2.5
COC(=O)c1ccccc1NC(=O)CSc1nccn1C	-4.6	?	10.3	1.7	2.9	1.7%	-0.3
CC1CCCCN1CCCNC(=O)CCCN1C(=O)c2cccnc2Sc2ccccc21 (stereo not given)	10.4	12.2%	-5.5	-11.8	-1.0	-0.5%	0.4
CCOC(=O)C1=C(CSc2nc3c(cc2C#N)CN(C)CC3)OC(N)=C(C#N)C1c1ccc(Cl)cc1 (stereo not given)	12.7	-30.8%	-23.1	13.6	-19.1	2.2%	0.8
Cc1ccc(-n2ncc(C(=O)NCC3CCN(C4CCCC4)C3)c2C2CCN(C(=O)OC(C)(C)C)CC2)cc1 (stereo not given)	5.7	-8.4%	-13.8	-29.1	2.8	-1.6%	-4.2

Screening data (PubChem)
